From PubChem
SARS PLpro yeast: qHTS of Yeast-based Assay for SARS-CoV PLP; S. cerevisiae expressing SARS-CoV PLpro, growth rescue; control for the full effect not named in the record; Potency, µM (doses to about 32.9 µM), for inactives: at the top dose activity, positive = growth rescue; actives 0.19% (n = 330,000); AID 485353, 2010; note: 0% is about no effect; nearly all actives have a fitted effect of over 55% in size; growth read by luminescence after 48 h
StopGo reporter: High Throughput Screening for Foot and Mouth Disease Virus Antivirals | human cells with a luciferase reporter of 2A StopGo recoding; control for the full effect not named in the record | AID 1159524, 2015 | Potency, µM (doses to about 57.9 µM), for inactives: at the highest dose signal change, negative = less light | actives 1.2% (n = 410,000); active = well fitted falling curve with a large enough effect; inconclusive = small, poorly fitted or top-dose-only effect; inactive = no such curve, though single readings can be large or run the other way; tested in HEK293T cells; note: % is set by controls: 0 for no effect and ±100 for the full control effect; nearly all actives have a fitted effect of over 45% in size; luciferase light after 4 h
NS1 function inh: qHTS Assay for Inhibitors of Influenza NS1 Protein Function; Potency, µM (top dose mostly 46.1 µM), without a hit: at the top dose activity, positive = more growth; actives 0.4% (n = 270,000); S. cerevisiae slowed by influenza A NS1, growth recovery by OD600; note: actives are rising curves; nearly all actives have a fitted effect of over 50% in size
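Recovery from NS1-induced slow growth read by OD600 in budding yeast switched to galactose assay medium (pH 6.0, -URA) at 1:100 dilution. Compound 23 nl per well; the matching strain lacking NS1 serves as control.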
Cruzain inh noDet: qHTS Assay for Promiscuous and Specific Inhibitors of Cruzain (without detergent) | Cruzipain (Trypanosoma cruzi), P25779 | purified cruzain, Z-FR-AMC fluorescence, no detergent | Potency, µM, inactives show max response, negative = inhibition, actives largely listed as inhibitors | actives 2.3% (n = 200,000) | AID 1476, 2009; active = well fitted curve in the direction sought with a large enough effect; inconclusive = small, poorly fitted or top-dose-only effect, or another doubt; inactive = no such curve, though single readings can be large; an effect the other way counts as inactive or inconclusive;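 note: plate controls were enzyme without inhibitor for no effect and buffer without enzyme for full effect; nearly all actives have a fitted effect of over 40% in size; top concentration of the series not given in the record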
Target sequence (P25779 123-467 limits assumed): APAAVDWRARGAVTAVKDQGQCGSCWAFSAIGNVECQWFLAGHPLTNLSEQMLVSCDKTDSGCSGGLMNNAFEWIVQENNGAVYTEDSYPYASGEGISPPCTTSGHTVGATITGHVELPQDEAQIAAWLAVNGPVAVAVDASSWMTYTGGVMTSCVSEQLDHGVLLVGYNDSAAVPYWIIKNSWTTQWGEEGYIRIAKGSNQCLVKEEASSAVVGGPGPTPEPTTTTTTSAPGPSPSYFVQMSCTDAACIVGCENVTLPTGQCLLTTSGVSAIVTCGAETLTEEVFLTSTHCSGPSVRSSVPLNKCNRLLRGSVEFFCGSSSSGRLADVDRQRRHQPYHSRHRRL
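Detergent-free condition (0.00005% Triton X-100) in acetate buffer pH 5.5 with DTT. 1.5 nM enzyme and compound were pre-mixed 15 min, then 2 uM Z-FR-AMC substrate added; reaction progress from fluorescence change between first and third reads (60 s).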
Marburg entry inh: qHTS for inhibitors of binding or entry into cells for Marburg Virus. Marburg virus pseudotyped entry inhibition, cell reporter; control for the full effect not named in the record; about a third of the inactives were read at about 46 µM. Potency, µM (titrated, usually from 37.8 µM), inactives show top-dose activity change, negative = inhibition, actives largely listed as inhibitors. actives 1.8% (n = 300,000). AID 540276, 2011; active = well fitted inhibition curve with a large enough effect; inconclusive = small, poorly fitted or top-dose-only effect, or effect the other way; inactive = flat fitted curve, though single readings scatter; tested in HEK293 cells; about a fifth of its hits are not listed in these tables; note: % is set by controls: 0 for no effect and ±100 for the full control effect; luciferase read-out
RE007 growth inh: qHTS Assay for Inhibitors of the HIV-1 protein Vpr | S. pombe RE007 Vpr strain, BacTiter-Glo ATP luminescence, 24 h; control for the full effect not named in the record | Potency, µM (highest dose often 92.2 µM), for inactives: top-dose activity change, negative = less growth | actives 0.21% (n = 360,000) | AID 651644, 2012; active = well fitted falling curve with a large enough effect; inconclusive = small, poorly fitted or top-dose-only effect; inactive = no such curve, though single readings can be large or run the other way;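 note: % is set by controls: 0 for no effect and ±100 for the full control effect; nearly all actives have a fitted effect of over 50% in size; the assay follows cell death caused by Vpr and the record does not say whether a fall means rescue or toxicity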
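Fission yeast strain RE007, carrying one chromosomally integrated HIV-1 vpr copy, was seeded at OD 0.01 in PMG+AL medium with 23 nL pinned compound. After 24 h at 30 °C and 99% humidity, viability was read by BacTiter-Glo luminescence.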
LASV entry inh: qHTS for Inhibitors of binding or entry into cells for Lassa Virus. Lassa virus pseudotype entry inhibition, cell reporter; control for the full effect not named in the record. Potency, µM (doses to about 37.9 µM), inactives show at the highest dose activity change, negative = inhibition, usual class: inhibitors. actives 1.2% (n = 300,000). AID 540256, 2011; active means well fitted inhibition curve with a large enough effect; inconclusive means small, poorly fitted or top-dose-only effect, or effect the other way; inactive means flat fitted curve, though single readings scatter; tested in HEK293 cells; note: % is set by controls: 0 for no effect and ±100 for the full control effect; nearly all actives have a fitted effect of over 50% in size; luciferase read-out
Cruzain Triton: qHTS Assay for Promiscuous and Specific Inhibitors of Cruzain (with detergent); Cruzipain (Trypanosoma cruzi), P25779; purified cruzain, Z-FR-AMC fluorescence, 0.01% Triton; Potency, µM, for inactives: max response, negative = inhibition, most hits filed as inhibitors; actives 0.43% (n = 200,000); AID 1478, 2009; active = well fitted curve in the direction sought with a large enough effect; inconclusive = small, poorly fitted or top-dose-only effect, or another doubt; inactive = no such curve, though single readings can be large; an effect the other way counts as inactive or inconclusive;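 note: plate controls were neutral wells for no effect and buffer without enzyme for full effect; nearly all actives have a fitted effect of over 40% in size; top concentration of the series not given in the record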
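Sodium acetate buffer (100 mM, pH 5.5) containing 5 mM DTT and 0.01% Triton X-100 hosted 1.5 nM cruzain and test compound for 15 min at room temperature. Cleavage of 2 uM Z-FR-AMC was then tracked by fluorescence.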
Starred values were filed as active, the others as inactive; ? = inconclusive; . = not tested or not shown; & = joins results of further samples; [ ] = another dose, or the depositor's remark. Unless noted, calls come from the whole dose curve; as a rule, active means well fitted rising curve with a large enough effect; inconclusive means small, poorly fitted or top-dose-only effect; inactive means no such curve, though single readings can be large or run the other way. Potency is the fitted concentration of half-maximal effect.

SMILES | SARS PLpro yeast | StopGo reporter | NS1 function inh | Cruzain inh noDet | Marburg entry inh | RE007 growth inh | LASV entry inh | Cruzain Triton
O=C(CSc1nc(O)c(Cc2ccccc2)c(=O)[nH]1)Nc1nc2c(s1)CCCC2 | 0% | 0% | ? | . | . | -8% | . | .
CCN1CCC(=NNC(=O)CC23CC4CC(CC(C4)C2)C3)CC1 | -10% | -14% | 21% | -2% | -4%[46.1 µM] | 1% | 2% | 6.9%
CCCCOc1ccc(CNC(=O)NS(=O)(=O)c2ccc(OCC(C)C)cc2)cc1 | 2% | -12% | -1% | 7.9µM* | -10% | -10% | 9% | 6.6%
O=C(CN1C2CCCC1CC(NC(=O)c1ccccc1)C2)Nc1nccs1 (stereo not given) | 12% | -17% | -2% | 3% | 14% | 11% | -24% | -0.5%
COc1ccc(/C=N/NC(=O)c2c(C)nc3ccc(Cl)cn23)cc1OC | 0% | -3% | ? | . | . | -7% | . | .
CCN(CC(=O)NCc1cccs1)C(=O)c1ccc(S(=O)(=O)Nc2ccccc2)cc1 | 29% | 5% | . | . | 2% | -16% | -5% | .
Cc1csc(=O)n1CCC(=O)OCc1nnc(-c2ccc(Cl)cc2)o1 | 7% | -9% | . | . | 6%[46.1 µM] | -16% | 13% | .
Cc1cc2occ(CC(=O)Nc3nnc(C4CC4)s3)c2cc1C | -1% | -30% | ? | ? | -14% | 3% | ? | -7.4%
CCOC(=O)C1CCN(S(=O)(=O)c2ccc(Cl)s2)CC1 | 7% | -3% | 8% | . | -7%[46.1 µM] | 10% | 8%[46.1 µM] | .
CC(C)c1ccc(CNc2nc(-c3ccco3)nn2C(=O)c2ccc([N+](=O)[O-])cc2)cc1 | . | 21% | . | -9% | 21%[46.1 µM] | . | 13%[46.1 µM] | -0.9%
CC(=O)NNC1=Nc2ccccc2N(C)C(C)C1 (stereo not given) | 3% | -21% | -5% | -21% | 42% | 20% | -8% | -0.8%
CC(SCc1ccccc1)C(=O)N/N=C/c1cc2c(cc1Br)OCO2 (stereo not given) | -22% | -23% | -22% | 3% | ? | 6% | 23µM* | -7.0%
Cc1ccc2nc3c(cc(C(=O)NCC4CCCO4)c(=N)n3CC3CCCO3)c(=O)n2c1 (stereo not given) | -1% | -4% | 12% | . | 11%[46.1 µM] | -9% | 22%[46.1 µM] | .
Cc1ccccc1-c1nc(CS(=O)(=O)CC(=O)NCCc2ccccc2)c(C)o1 | 7% | -19%&0% | 12% | 1% | -3%&-3%[46.1 µM] | 6% | 23%[46.1 µM] | -0.9%
O=C(NCCN1CCOCC1)c1ccc2c(c1)N(Cc1ccccc1)CCS2 | 3% | -17% | -15% | -12% | . | -3% | . | -7.9%
Cc1ccc(CNC(=O)CSCC(=O)O)cc1 | 3% | -5% | -9% | -6% | 8% | 16% | 1% | -1.4%
O=C(/C=C/c1ccccc1)OCCN=C1NS(=O)(=O)c2ccccc21 | -2% | -29% | 4% | . | -4%[46.1 µM] | -18% | 9% | .
COc1cccc(C(=O)OCc2cc(=O)oc3c(C)c(C)ccc23)c1OC | 2% | -28% | 10% | . | -4%[46.1 µM] | -2% | 2% | .
CCOCCCNC(=O)CCN1C(=O)c2ccccc2Sc2ncccc21 | -1% | -5% | 4% | . | -2%[46.1 µM] | 5% | 0%[46.1 µM] | .
Cc1nc(S(=O)(=O)N(C)Cc2ccccc2)c(C#N)c(C)c1Cl | -6% | 12% | 3% | 8% | 10% | -6% | 2% | -4.4%
C=CCn1c(-c2ccc(Cl)cc2)c[nH]c1=S | ? | 7% | 1% | -17% | ? | 8% | -1% | 0.1%
CCOc1ccccc1NC(=O)Cn1c(=O)n(Cc2ccco2)c(=O)c2ccc(C(=O)NC3CCCC3)cc21 | . | -7% | . | 7% | -1%[46.1 µM] | . | 3%[46.1 µM] | -2.4%
CC1CCN(c2nc3ccccc3nc2SCC(=O)Nc2ccccc2C(C)C)CC1 | . | ? | . | -6% | ? | . | -2%[46.1 µM] | -7.3%
O=C(CNS(=O)(=O)c1ccc(Br)cc1)N1CCN(c2ccc(F)cc2)CC1 | 22% | ? | -3% | 7% | -27%[46.1 µM] | -15% | -27% | 1.4%
O=C(COC(=O)c1cc(S(=O)(=O)N2CCOCC2)ccc1Cl)NCc1ccccc1 | 21% | -8% | . | . | -13% | 9% | 4% | .
COc1ccc(OCC(=O)NCc2ccc3c(c2)CCN3C(=O)c2cccc(C)c2)cc1 | . | -26% | . | 14% | . | . | ? | -2.4%
CN(C(=O)COC(=O)/C=C/c1ccc(Cl)c(Cl)c1)c1c(N)n(Cc2ccccc2)c(=O)[nH]c1=O | 6% | ? | . | . | -28% | -18% | -7% | .
Nc1nc(NCc2ccco2)nn1-c1ccccc1 | -2% | 2% | -15% | 16% | 28%&28% | 1% | 18% | -1.9%
CCOC(=O)c1sc2ccccc2c1S(=O)(=O)Nc1c(C)cccc1C | . | 42%[activator] | . | -11% | . | . | 2%[46.1 µM] | -7.9%
Cc1ccc(C)c(S(=O)(=O)N2CCN(C(=O)c3ccccc3Cc3ccccc3)CC2)c1 | 2% | ? | . | . | ? | -9% | ? | .

Compound profiles, from the list above. Order of values: SARS PLpro yeast	StopGo reporter	NS1 function inh	Cruzain inh noDet	Marburg entry inh	RE007 growth inh	LASV entry inh	Cruzain Triton
Cc1ccc(C)c(S(=O)(=O)N2CCN(C(=O)c3ccccc3Cc3ccccc3)CC2)c1 as listed: 2%	?	.	.	?	-9%	?	.
Cc1ccc(CNC(=O)CSCC(=O)O)cc1 as listed: 3%	-5%	-9%	-6%	8%	16%	1%	-1.4%
Cc1cc2occ(CC(=O)Nc3nnc(C4CC4)s3)c2cc1C as listed: -1%	-30%	?	?	-14%	3%	?	-7.4%

Next structures.
SMILES | SARS PLpro yeast | StopGo reporter | NS1 function inh | Cruzain inh noDet | Marburg entry inh | RE007 growth inh | LASV entry inh | Cruzain Triton
CSc1ncccc1C(=O)OCC(=O)Nc1ccc2c(c1)OCO2 | -4% | 15% | . | . | 9%[46.1 µM] | -10% | 1% | .
COc1cccc(OCCNc2cc(N3CCOCC3)ccc2[N+](=O)[O-])c1 | -20% | -1% | 7% | 5% | 10% | -6% | 23% | -8.5%
O=C1OC(N2C(=O)CC[C@H]2C(=O)NCC2CCCO2)c2ccccc21 (stereo not given in full) | -9% | -8% | -6% | . | . | 4% | . | .
Cc1ccc(C)c(C(=O)COC(=O)c2cc(Cl)nc3ccccc23)c1 | 9% | 22% | -18% | -15% | 5% | 7% | 22% | -2.4%
CCc1ccccc1NC(=O)CCCn1c(=O)c2cccn2c2ccccc21 | . | -14% | . | -27% | . | . | ? | -24%
CCn1c(O)c(C=Nc2ccccc2)sc1=S | -5% | 17% | . | . | ? | 8% | 4%[46.1 µM] | .
CN(Cc1ccccc1)Cc1c(O)ccc2ccccc12 | 2% | 28% | 10% | . | ? | 0% | -31% | .
COc1ccc(N2Cc3cccc(C(=O)Nc4cccc(F)c4)c3C2=O)cc1 | . | 5% | . | 11% | 5%[46.1 µM] | . | ? | -3.5%
O=C(O)CCN(CCC(=O)O)c1ccccc1 | 0% | -9% | 0% | -2% | 9%[46.1 µM] | 1% | -18% | 6.9%
COc1ccccc1CNC(=O)[C@@H]1CCCN1S(=O)(=O)c1ccc(Cl)cc1 | 0% | -4% | 23% | . | -10%[46.1 µM] | 0% | -2%[46.1 µM] | .
Cc1ccc(C2C(C#N)=C(N)Oc3cc(N)ccc32)cc1 (stereo not given) | -3% | -7% | -1% | . | . | 5% | . | .
CCN(c1ccc(N=Cc2c(O)n(Cc3ccc(OC)cc3)c(=O)c3ccccc23)cc1)C(C)C | -1% | 8% | . | . | -4%[46.1 µM] | 1% | 13% | .
CC1=C(c2ccccc2)C=NNCC1=O | . | -7% | . | . | 17%[46.1 µM] | -5% | 0%[46.1 µM] | .
Cc1ccc(S(=O)(=O)NCc2ccccc2)cc1C(=O)N1CCN(S(=O)(=O)c2ccccc2)CC1 | -5% | 4% | . | . | -18% | -10% | -4% | .
CS(=O)(=O)N1CCN(C(=O)Cc2ccc(Br)cc2)CC1 | -1% | 0% | -8% | . | . | 3% | . | .
O=C(NCc1ccc(F)cc1)C1CCCN(c2cnccn2)C1 (stereo not given) | 1% | -9% | 2% | . | . | -10% | . | .
Cc1ccc(C(=O)N2CCN(S(C)(=O)=O)C2)cc1 | -2% | -13% | 1% | -6% | ? | 19% | -2% | 4.3%
COc1cccc(CNC(=O)CCNC(=O)N2CCn3c2nc2ccccc23)c1 | -7% | 1% | 6% | . | . | 5% | . | .
COCCCn1c(-c2ccc(Cl)cc2)n[nH]c1=S | 4% | 36%[activator] | 9% | -5% | 4%[46.1 µM] | -2% | -22% | 1.9%
COc1ccc(C(=O)Cn2c(=N)n(C)c3ccccc32)cc1 | 0% | 76%[activator] | -1% | . | ? | -4% | ? | .
Cc1ccc(C)c(NC(=O)CC2Oc3ccccc3NC2=O)c1 (stereo not given) | 1% | 40%[activator] | 1% | . | . | -4% | . | .
Cc1ccn2cc(-c3cc4ccccc4oc3=O)nc2c1 | -1% | -42% | -5% | . | ? | -11% | 1.6µM* | .
CCOC(=O)C(NC(C)=O)(Nc1cccc(F)c1)C(F)(F)F (stereo not given) | -2% | -18% | -4% | -9% | -1%[46.1 µM] | -3% | -1% | -0.5%
